Screening results deposited in PubChem BioAssay by several laboratories.
Beta cell apopt – beta cell apoptosis inhibition | INS-1E cytokine-induced death, ATP luminescence, 48 h; percent of positive-control rescue, neutral wells zero | protection from apoptosis, % (test concentration not listed) | 300,000 tested, 0.8% active | AID 435005;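 active = all replicates at 75% or more, or half of them and the mean; inconclusive = half reach 75% but not the mean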;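 also: 0% = cytokine-treated negative control wells and 100% = positive control rescue; higher means more ATP so stronger rescue from cytokine killing; wells of about 40 µL received 100 nL stock; the first replicate is given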
B2AR ag – agonists of human beta-2 adrenergic receptor inducing internalization; P07550; Am2.2-beta2AR cells, FAP receptor internalization, flow cytometry; reference of the scale not given here; response, % (test concentration not listed); 340,000 tested, 0.43% active;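 active = response above a set limit, near 3 SD of response in nonfluorescent compounds, cut at about 42% in these data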;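 also: stock transfer was 100 nL into about 11 µL; a reference agonist was the positive control; negative values mostly stem from fluorescent compounds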
Target sequence (P07550 whole entry, looked up): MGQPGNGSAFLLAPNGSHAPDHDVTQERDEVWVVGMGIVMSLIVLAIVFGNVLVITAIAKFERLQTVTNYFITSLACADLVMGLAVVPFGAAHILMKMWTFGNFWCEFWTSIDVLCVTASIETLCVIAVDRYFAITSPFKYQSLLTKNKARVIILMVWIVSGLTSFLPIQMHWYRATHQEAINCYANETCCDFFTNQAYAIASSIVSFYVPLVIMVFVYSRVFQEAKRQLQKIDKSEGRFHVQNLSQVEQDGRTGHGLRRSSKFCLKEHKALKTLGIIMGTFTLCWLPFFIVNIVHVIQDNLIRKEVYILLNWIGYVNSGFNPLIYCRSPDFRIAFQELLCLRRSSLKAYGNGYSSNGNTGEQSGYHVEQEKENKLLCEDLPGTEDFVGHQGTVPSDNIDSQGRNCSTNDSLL
RanGTP-Imp inh – disruptors of Ran-importin-beta complex formation – biochemical, FRET, CFP-Ran, YFP-importin-beta, homogeneous, primary screen | cell-free CFP-Ran/YFP-importin-beta FRET ratio | inhibition, % (no concentration beside the values) | 300,000 tested, 1.1% active | AID 2216;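 active = most replicates above 15%; inconclusive = exactly half above 15%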;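 also: 0% = DMSO wells and 100% = Ran loaded with GDP instead of GTP; wells of about 40 µL received 100 nL stock; the first replicate is given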
UCH37 inh – human UCH37 deubiquitinating enzyme inhibition; inhibition, % (test concentration not listed); purified proteasome/UCH37, Ub-AMC cleavage fluorescence; AID 588478; 330,000 tested, 0.33% active;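 active = mean of two replicates above 20%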;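 also: 0% = compound-free wells with enzyme and 100% = wells lacking proteasome; stock transfer was 100 nL into about 20 µL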
Target sequence (Q9Y5K5 whole entry, looked up): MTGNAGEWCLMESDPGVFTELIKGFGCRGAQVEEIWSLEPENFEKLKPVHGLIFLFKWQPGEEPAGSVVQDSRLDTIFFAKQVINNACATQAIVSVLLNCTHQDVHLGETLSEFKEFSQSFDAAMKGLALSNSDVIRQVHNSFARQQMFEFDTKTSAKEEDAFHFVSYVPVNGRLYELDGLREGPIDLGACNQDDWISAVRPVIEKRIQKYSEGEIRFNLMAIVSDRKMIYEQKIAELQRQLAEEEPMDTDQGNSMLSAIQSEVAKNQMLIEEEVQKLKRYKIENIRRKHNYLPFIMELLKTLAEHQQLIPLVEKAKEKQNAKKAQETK
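Schedule: 30 min plus 25 min, room temperature / Material: human UCH37 within purified proteasomes / Technique: AMC fluorescence intensity at 355/460 nm / Buffer or medium: pH 7.4 Tris-HCl (50 mM) with ovalbumin, ATP-MgCl2, DTT / Controls: wells without proteasome as full block, compound-free enzyme plus substrate as uninhibited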
T cruzi repl – blocks replication of Trypanosoma cruzi | T. cruzi beta-gal in NIH3T3, luminescence, 90 h | inhibition, % (concentration not given with the values) | 300,000 tested, 1.4% active | AID 1885;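 active = mean inhibition across valid replicates above about 55%, limit read from the data; inconclusive = mean below that limit but half or more replicates reach it; inactive = mean below it, under half of replicates reach it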;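 also: signal also drops with host cell toxicity which is not excluded here; 0% = plate median of DMSO wells and 100% = zero luminescence signal; higher percent means less beta-gal luminescence so fewer parasites; stock transfer was 50 nL into about 50 µL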
Calb FLC – C. albicans growth modulation with fluconazole; C. albicans CaCi-2 (fluconazole-resistant clinical isolate) + fluconazole, Alamar Blue growth, 48 h; growth inhibition, % (test concentration not listed); 300,000 tested, 0.57% active;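 active = most replicates above 75%; inconclusive = exactly half above 75%; inactive = most below 75%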;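 also: all wells also contain fluconazole at 8 µg/ml as a sub-toxic cotreatment; 0% = median of DMSO wells and 100% = median of geldanamycin control wells; wells of about 8 µL received 7.5 nL stock; the first replicate is given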
A1 inh – inhibitors of the anti-apoptotic protein A1, read as caspase activation; MEF A1-2A-BIM cells, Caspase-Glo 3/7 luminescence, 3 h; percent of clofoctol response, vehicle zero; 330,000 tested, 0.066% active; caspase activation, % (test concentration not listed);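 active = over half of replicate activation scores above 10%, or exactly half above 10 with the replicate mean above 10; inconclusive = replicate mean below 10 yet half the replicates above 10; inactive = over half of replicates below 10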;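 also: wells of about 30 µL received 50 nL stock; many hits fall short of the cut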
LANA-H2A inh – blocks KSHV LANA binding to histone H2A/H2B | cell-free LANA-H2A/H2B peptide, fluorescence polarization | 320,000 tested, 0.6% active | Q9QR71 | inhibition, % (test concentration not listed); in the data active = inhibition mostly above about 10%, no sharp cut-off; inactive = mostly below about 6.7%;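 also: stock transfer was 7.5 nL into about 10 µL; 0% = median of vehicle wells and 100% = median of positive control wells; one replicate is shown; the record names a cut of 25% in any replicate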
An asterisk follows results filed as active; ? = inconclusive; nt = no result given; + = active, no number.

canonical_smiles	Beta cell apopt	B2AR ag	RanGTP-Imp inh	UCH37 inh	T cruzi repl	Calb FLC	A1 inh	LANA-H2A inh
CCCCN(C(=O)CSc1nnc(-c2ccccc2OC)n1C)c1c(N)n(Cc2ccccc2)c(=O)[nH]c1=O	9	-3	1.5	nt	1	32	-0.1	+
C=CCNC(=O)c1ccc(CN2CCC(Cc3ccccc3)CC2)cc1	-1	6	-2.0	4.3	4	-18	-0.7	0.3
N#Cc1ccc(NC(=O)Nc2cccc(C#N)c2)cc1	21	13	1.5	nt	18	-5	-0.4	2.5
Cc1[nH][nH]c(=O)c1C(c1ccc(-c2ccccc2C(=O)O)o1)c1c(C)[nH][nH]c1=O	-2	-3	-4.6	24*	-3	-32	-1.0	8.8
COC(=O)c1ccc2c(=O)n(CCCCCC(=O)N3CCN(c4ccccc4)CC3)c(=O)[nH]c2c1	-5	13	-4.5	-2.6	13	-1	-0.5	5.8
Cc1nc2scc(C)n2c(=O)c1S(=O)(=O)NCCc1ccccc1	-1	7	-0.8	-100	-1	22	2.3	0.3
COc1ccc2c(c1)c(=O)c(C(=O)c1ccc(C)cc1)cn2CC(=O)Nc1ccc(F)cc1	nt	8	-4.2	5.1	18	0	0.2	-0.5
Cc1nnc(SCC(=O)Nc2ccc(S(N)(=O)=O)cc2)n(N)c1=O	1	1	nt	2.5	nt	nt	-1.0	8.1
Cc1ccc(S(=O)(=O)Nc2ccc(=O)n(Cc3ccc(Cl)c(Cl)c3)c2)cc1	-8	3	9.0	-0.3	-15	?	0.3	-13
O=C(O)c1ccc(NC2=Nc3cccc4cccc2c34)cc1	nt	21	2.7	3.2	-2	-2	nt	nt
C=CCn1c(NCc2ccc(N(C)C)cc2)nc2ccccc21	3	7	6.1	3.6	-21	7	1.1	7.2
O=C(COC(=O)Cn1cnc2ccccc21)Nc1cc2c(cc1Cl)C(=O)c1ccccc1C2=O	20	8	0.6	3.4	7	-1	-0.4	-0.3
O=C(CCSc1ccccc1)Nc1ccccc1C(=O)N1CCCC1	-6	1	-4.3	3.1	0	2	0.4	-3.9
O=C(Nc1ccc2oc(-c3ccc(F)cc3)nc2c1)c1ccccc1F	7	-2	4.8	-11	-7	10	-0.6	2.0
Cc1c(NC(=O)Cn2[nH]c(=O)c3ccccc3c2=O)c(=O)n(-c2ccccc2)n1C	1	-8	0.8	-1.0	-5	11	0.7	2.3
CCOC(=O)c1c(NC(=O)CN2C(=O)NC3(CCCCC3)C2=O)sc(C)c1-c1ccc(C)cc1	nt	20	0.1	1.7	25	-7	1.5	2.9
O=C(NCc1ccccc1)C1CCN(S(=O)(=O)c2cc([N+](=O)[O-])ccc2Cl)CC1	3	2	0.4	-0.8	22	7	0.2	4.8
O=C(COc1ccccc1)Nc1ccc2c(c1)Cc1cc(NC(=O)COc3ccccc3)ccc1-2	-1	-4	-0.8	nt	0	7	-2.1	-9.3
O=C(COC(=O)c1ccc(Cl)c(S(=O)(=O)N2CCN(c3ccc(F)cc3)CC2)c1)Nc1cccc(Cl)c1	1	-7	-2.0	-1.7	0	1	-0.2	nt
COC(=O)CSc1nc2ccccc2o1	-4	5	-1.0	0.5	-7	-1	0.7	0.3
Oc1ccccc1C=NC1=NN(c2cccc(C(F)(F)F)c2)CC1	1	5	-0.1	1.4	4	-40	-0.5	-0.3
Nc1cccc2c1C(=O)N(CCOc1ccccc1F)C2=O	-5	0	42*	-163	-3	-1	-8.2	2.5
O=C(CCN=C1NS(=O)(=O)c2ccccc21)OCC(=O)c1ccccc1Cl	-1	2	1.3	-1.4	-10	-2	-0.1	1.1
Cc1cc(C)cc(NC(=O)CSc2nc(N)c(NC(=O)c3ccc(Br)o3)c(=O)[nH]2)c1	-9	0	-1.6	0.1	-7	9	0.0	-1.3
Cc1ccc(OCCCC(=O)Nc2ccccc2C(F)(F)F)cc1	-4	5	-0.5	-1.7	-11	-1	0.5	-1.7
Cc1ccc(NC(=O)c2cnn(C)c2)cc1[N+](=O)[O-]	-6	8	-2.1	3.9	-13	6	-0.1	-3.5
CCCC(=O)O[C@H]1C[C@@H](C)N(C(=O)c2ccccc2)c2ccc(C)cc21	-7	5	0.9	3.9	-2	2	1.1	1.4
CC(CCc1ccco1)NC(=O)CCc1nnc2ccc(NCc3ccccc3Cl)nn12 (configuration not stated)	nt	-15	-2.0	-2.4	25	-3	-1.2	4.6
CCc1ccc(C2CC(=O)N(c3ccc(F)cc3)C3=C2C(=O)OC3)cc1 (configuration not stated)	-5	4	-4.0	-0.4	-18	-1	0.5	0.7
O=C(Nc1nc2n(n1)C(c1ccc(F)cc1)CC(c1ccccc1)N2)c1ccco1 (configuration not stated)	-4	-12	2.0	6.4	10	-11	-2.5	-3.4
COc1ccc(-n2c(=O)c3c4c(sc3n(Cc3cccc(F)c3)c2=O)CN(C(C)=O)CC4)c(OC)c1	4	nt	?	3.1	1	18	-0.1	0.7
CCN1CCN(C(=O)/C=C/c2ccccc2[N+](=O)[O-])CC1	-5	-2	?	17	-2	-12	0.9	-4.0
Cc1ccccc1N(CC(=O)NC1CCCC1)C(=O)c1oc(C(C)(C)C)cc1C	7	6	-1.6	2.4	21	4	0.6	-3.3
COc1ccc2[nH]cc(CCNS(=O)(=O)c3ccc(NC(C)=O)cc3)c2c1	-8	3	-4.2	1.0	-8	1	0.3	4.6
Cc1sc2nc(CN3CCOCC3)nc(NS(=O)(=O)c3ccc4c(c3)OCCO4)c2c1C	-4	-6	3.2	4.1	-10	18	0.2	0.9
O=C(CCOc1ccccc1)Nc1ccc(S(=O)(=O)N2CCCC2)cc1	1	3	1.8	2.7	-15	-3	0.6	-4.4
O=S(=O)(Nc1ccc(-c2ccc3nncn3n2)cc1)c1cccs1	nt	10	0.4	3.6	-4	-4	0.5	-5.5
COCC1CCN(C(=O)c2cc(COc3cc(C)c(Cl)c(C)c3)on2)C1 (configuration not stated)	-5	-1	2.1	1.2	-5	-1	-0.6	1.5
Nc1nc(NCC(=O)O)nc(NCc2ccccc2)c1[N+](=O)[O-]	1	-5	6.0	17	-11	3	0.4	-4.7
NS(=O)(=O)c1ccc(CCNS(=O)(=O)c2cccc3cccnc23)cc1	-6	1	0.3	4.1	-13	-3	0.3	-3.2
CCOc1ccc(NC(=O)/C(=C\c2ccc(OC(C)=O)c(OC)c2)NC(C)=O)cc1	-2	-1	3.3	2.6	8	-3	-0.3	-0.8
Cc1ccc(C(CC(=O)O)NC(=O)c2ccc(S(=O)(=O)N3CC(C)OC(C)C3)cc2)cc1 (configuration not stated)	-5	-1	nt	2.2	nt	nt	-0.6	1.4
COC(=O)Cn1c(=N)n(CCN2CCCCC2)c2ccccc21	2	8	3.0	0.1	1	2	1.4	-4.0
O=C(Nc1ccn(CC(=O)N2CCN(c3ccccn3)CC2)c(=O)n1)OCc1ccccc1	1	-4	nt	3.7	nt	nt	-0.6	-0.3
CCC(C)N(C(=O)CSc1nc2ccc(OC)cc2[nH]1)C1CCS(=O)(=O)C1 (configuration not stated)	-1	-6	-0.5	1.6	-1	-5	-0.1	3.5
COc1ccc(NC(=O)[C@@H]2CCCN2C(=O)c2cccs2)cc1S(=O)(=O)N1CCCCC1	-2	-6	nt	4.3	nt	nt	-0.6	6.0
CCCCCCOc1ccc(/C(C)=N/NC2=NCCN2)cc1[N+](=O)[O-]	57	11	6.4	nt	66*	?	0.4	-8.5
N#CCCN(C(=O)COC(=O)CSc1ccc(Cl)cc1)c1ccccc1	-11	-7	nt	1.2	nt	nt	-2.3	-0.3
COCCCNC(=S)N/N=C/c1ccc2c(c1)OCO2	2	-4	-2.2	nt	-25	-9	-0.8	0.8
CCOc1ccccc1N1CC(C(=O)Nc2cc(Cl)ccc2C)CC1=O (configuration not stated)	-1	3	-1.2	1.5	-11	-9	0.2	-3.2

Remaining list, next part:
canonical_smiles	Beta cell apopt	B2AR ag	RanGTP-Imp inh	UCH37 inh	T cruzi repl	Calb FLC	A1 inh	LANA-H2A inh
CC(=O)Cn1c(CN2CCCC2)nc2ccccc2c1=O	-7	-6	3.4	1.6	-15	6	-0.9	0.4
COc1ccc(C(=O)N/C(=C/c2cccnc2)C(=O)N2CCN(C)CC2)cc1OC	-2	7	?	1.8	-6	6	-0.1	-6.2
O=C(Nc1nc(-c2ccccc2)ns1)c1ccncc1	16	7	-1.8	5.0	2	8	-2.6	2.2
Cc1cccc(NC(=O)CSc2nccn2C)c1	-6	0	1.3	2.3	-1	1	0.1	-2.3
N#Cc1c(NC(=O)c2cnn3cccnc23)sc2c1CCCC2	3	-15	?	3.0	5	-2	-4.3	2.3
Cc1cc(C)cc(OCC(=O)OCC(=O)Nc2cc(S(=O)(=O)N3CCOCC3)ccc2C)c1	-3	1	nt	1.1	nt	nt	-1.0	0.6
NC(=O)CSc1nc(O)cc(=O)n1-c1ccccc1	-3	-4	3.4	-0.9	-6	-6	0.3	1.1
Cc1cc(NC(=O)c2cc(S(=O)(=O)N3CCCCC3)ccc2C)no1	-4	-2	nt	5.9	nt	nt	0.4	-0.4
COc1ccc(C)cc1NC(=O)Cc1c(C(=O)O)n(C)c2ccccc12	-1	1	?	3.7	-8	5	-0.2	7.0
Cn1c(=O)n(Cc2ccc(F)cc2)c(=O)c2c1nc1n2CCN1Cc1ccco1	-5	0	3.2	5.8	-3	-1	-0.4	-1.9
C/C(CC(=O)NC1CCCC1)=N\NC(=O)Cc1cccs1	-6	-8	-10	nt	-2	-21	-0.9	3.7
COc1ccc(C(=O)COC(=O)c2nn(C)cc2Cl)cc1	0	5	-1.3	1.7	-10	0	-7.5	-4.8
